AID504770 = growth inhibition of E. coli YBA685, primary screen, V. cholerae RctB inhibitors. AID 504770, 2011. 0.27% of 130,000 active. z-score (concentration not given with the values). E. coli YBA685 rctB-dependent plasmid, OD600 growth, 3 h; hits give low values;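 active = z-score under -2 on both plates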;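 also: wells of about 30 µL received 100 nL stock; score is relative to mean and SD of the test wells; the first replicate is given; strong numbers were not always called active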
Ba CapD inh = Bacillus anthracis CapD inhibitors, primary screen, biochemical, fluorescence intensity. purified CapD enzyme, fluorescence intensity read-out; hits give low values; some hits fall short of the stated cut. 0.23% of 140,000 active. AID 492967, 2010. z-score (concentration not given with the values). CapD gamma-glutamyltranspeptidase (Bacillus anthracis Ames Ancestor);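 active = z-score under -4 in either of two replicates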;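 also: stock transfer was 100 nL into about 40 µL; score is relative to mean and spread of the plate; one replicate is shown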
The depositor's hits bear a star; x = not tested or not shown; & = joins results of further samples.

SMILES | AID504770 | Ba CapD inh
Cc1csc(=NC(C)C)n1/N=C/C(C)c1ccccc1 (configuration not stated) | -0.55 | x
COC1CCCC(C(=O)Nn2c(C3CC3)nc3ccccc3c2=O)C1 (configuration not stated) | -0.95 | x
COc1ccc(C(=O)Nc2ccc3nc(N4CCN(C)CC4)cc(C)c3c2)c(OC)c1 | -0.25 | 40
Cc1cc(C(=O)OCc2ccc(Br)cc2)c(C)o1 | -0.7 | x
OC(CN1CCN(CC(O)C(F)(F)F)CC1)C(F)(F)F (configuration not stated) | 0.55 | -0.36
Nc1cc2c(cc1C(=O)O)OCO2 | -0.15 | x
O=C(O)/C=C/c1ccc(-n2ccnc2)cc1 | 0.85 | x
CC(=O)C1=NN(c2ccc([N+](=O)[O-])cc2)C2(S1)c1ccccc1C(c1cc(C)ccc1C)=NN2c1ccccc1 (configuration not stated) | x | -0.56
Cc1nc(SCCO)c2c3c(sc2n1)CCCC3 | -0.6 | 0.81
COc1cc2c(cc1OC)C(C)N(C(=O)CCCC(=O)O)CC2 (configuration not stated) | 2.2 | 0.46
O=C(N/N=C\c1ccc(F)cc1)C(c1ccccc1)N1CCOCC1 (configuration not stated) | -0.25 | x
COc1ccc2oc(=O)c(C(=O)NC3CCCC3)cc2c1 | 0.75 | 24
O=S(=O)(c1cc(C(F)(F)F)cc(C(F)(F)F)c1)N1CCC(O)(c2ccc(Cl)c(C(F)(F)F)c2)CC1 | x | -0.47
CCC1(C)CC2(CCCN(CCO)C2)CCO1 (configuration not stated) | 0.3 | 0.64
Cc1c(C(=O)N(C)C)sc2c1c(=O)n(Cc1ccccc1)c(=O)n2Cc1ccccc1C#N | -0.2 | -0.06

Not a retest: entries from further up.
SMILES | AID504770 | Ba CapD inh
COc1cc2c(cc1OC)C(C)N(C(=O)CCCC(=O)O)CC2 (configuration not stated) | 2.2 | 0.46
O=C(N/N=C\c1ccc(F)cc1)C(c1ccccc1)N1CCOCC1 (configuration not stated) | -0.25 | x
COc1ccc2oc(=O)c(C(=O)NC3CCCC3)cc2c1 | 0.75 | 24

Further records follow.
SMILES | AID504770 | Ba CapD inh
N#Cc1cnn2cc(CCCO)c(C(F)(F)F)nc12 | -0.1 | 3.8
Nc1c(C(=O)c2ccc(Br)cc2)sc2nc3c(cc12)CCCCC3 | x | 0.1
CC1(C)Cc2c(c(N3CCCCC3)nc3sc(C#N)c(N)c23)CO1 | 1.5 | 3.1
CCCCN(Cc1cc2ccccc2[nH]c1=O)S(=O)(=O)c1ccccc1 | -0.3 | 8.6
Cc1ccc2c(c1)-c1c(ssc1=S)C(C)(C)N2C(=O)c1ccc([N+](=O)[O-])cc1 | x | 0.7
Cc1ccc(-c2nn(C)c(=O)c3ccccc23)cc1CNC(=O)CSc1nc2ccccc2s1 | 2 | -0.53
CCOC(=O)C1C(=O)N(C(=O)c2cncc(Br)c2)CC1c1ccccc1 (configuration not stated) | 0.3 | x
Cc1cc(C(=O)OCC(=O)c2ccc(Cl)cc2)ccc1[N+](=O)[O-] | x | 0.19
O=C(CCC1CCCC1)Nc1ccc2c(c1)OCO2 | -0.3 | x
COc1ncnc2c(C)csc12 | -0.95 | -0.55
Cn1c(Cl)c(CN)c2ccccc21 | 0.4 | 0.8
CCOC(=O)Cn1c(=O)c(=O)n(Cc2ccccc2)c2ccc(S(C)(=O)=O)cc21 | x | 4.7
O=C(N/N=C/c1csc([N+](=O)[O-])c1)c1ccccc1Oc1ccccc1 | x | -0.035
CCNc1nc(N)c(C(=O)c2ccc(Cl)s2)s1 | -0.15 | -3.4
Cc1onc(-c2c(Cl)cccc2Cl)c1C(=O)NCCSC1=NCCN1 | -0.25 | 0.14
CCCn1c(SCCO)nc2ccccc21 | 0.4 | x
COC(=O)c1ccc(/C=C(\C#N)C(=O)NC2CCCCC2)cc1 | 0.35 | x
CCOC(=O)C1=C(C)N=c2s/c(=C/c3ccc(OC(C)=O)cc3OC(C)=O)c(=O)n2C1c1ccccc1Cl (configuration not stated) | x | 0.42
S=C(Nc1ccccc1)N1CCCN1c1ccccc1 | 0.05 | 0.38
Cc1nc2ccc(S(=O)(=O)N3CCCCC3)cc2s1 | -0.25 | x
Brc1cccc(-c2nnc3sc(CNCc4ccc5c(c4)OCO5)cn23)c1 | 0.1 | x
CC1(C)CC(=O)C2=C(C1)Nc1ccc3ccccc3c1C2c1ccc(Cl)c(Cl)c1 (configuration not stated) | x | 8.5
O=C1/C(=C/c2ccco2)CCC1C1CCCC1 (configuration not stated) | 1.9 | -0.85
C=CCn1c(=NC(=O)c2ccco2)sc2cccc(OCC)c21 | -0.4 | x
NS(=O)(=O)c1cc2c(cc1Cl)NC(C(Cl)Cl)NS2(=O)=O (configuration not stated) | 0 | 0.44&-0.12
O=C(NCc1ccccc1Cl)c1nc2c(nnn2CC2CCCO2)c(=O)[nH]1 (configuration not stated) | -1.1 | -0.73
Nc1nnc(CSCc2ccccc2)s1 | 0.4 | x
CNC(=O)CCc1nc(-c2ccc(OC)cc2)no1 | -0.85 | -1.3
COc1cc(C2C3=C(Nc4c2c(=O)n(C)c(=O)n4C)c2ccccc2C3=O)cc(OC)c1OC (configuration not stated) | x | 0.48
CCc1ccc(/C=C2\Sc3ccccc3N(CC(=O)O)C2=O)cc1 | -0.25 | -0.49
O=C(O)CCC(=O)c1ccc2c(c1)CCCC2 | 0.75 | x
Nc1nc2cc(S(=O)(=O)N3CCOCC3)ccc2o1 | -0.65 | x
S=c1[nH]nc(Cc2ccsc2)n1Cc1ccccc1 | -1 | 0.36
CN1C(=O)CC(N2CCN(Cc3ccccc3)CC2)C1=O (configuration not stated) | 0.7 | 0.71
COCC(C)NC(=O)C1CC(c2ccc(F)cc2)=NO1 (configuration not stated) | 0.1 | -0.76
CC(=O)N(Cc1cccnc1)Cc1cc2cc3c(cc2n2nnnc12)OCO3 | 0.45 | x
NC(=O)c1sccc1Cl | -0.35 | 0.36
O=c1c(-c2ccccc2)c(O)c2cccc3c2n1CCC3 | x | 0.89
CCCC1=C(C(=O)OC(C)(C)C)C2(C(=O)Nc3ccccc32)C(C(=O)OCC)=C(N)O1 (configuration not stated) | x | 0.32
CCOC(=O)C1=C(O)/C(=C/c2cccs2)SC1=NC(=O)c1ccc(C)cc1 | 0.3 | 3.5
CC(C)COC(=O)COc1ccc2c(=O)c(-c3ccccc3)coc2c1 | 0.05 | 0.065
CC1(C)CC(=O)C2=C(C1)NC1=C(C(=O)c3ccccc31)C2c1ccccc1 (configuration not stated) | x | -0.34
O=C(Nc1ccccc1)C(=S)NC1CCCC1 | -0.7 | 0.18
NC(=S)c1cnn2c(C(F)(F)F)cc(C(F)(F)F)nc12 | -0.6 | -0.18
Cc1ccc(N2CC34C=CC(O3)C(C(=O)O)C4C2=O)cc1 (configuration not stated) | -0.7 | -0.4
CCCS(=O)(=O)c1c(S(=O)(=O)CCC)c2cc(-c3ccccc3)ccn2c1C(=O)c1ccccc1 | x | -0.47
O=C(O)c1ccccc1SCc1ccc2c(c1)OCO2 | -0.45 | x
O=C1CC(c2ccccc2F)C2=C(CC(c3ccc(F)cc3)CC2=O)N1 (configuration not stated) | -0.2 | -0.65
O=C(O)c1ccc(NC(=O)C2CC(=O)N(Cc3ccccc3)C(=Nc3ccc(Cl)cc3)S2)cc1 (configuration not stated) | x | -0.33
Cc1cc(S(=O)(=O)NCCC2=CCCCC2)ccc1-n1cnnn1 | -0.45 | x
CN(C)c1ccc(NS(=O)(=O)c2ccc(-c3csnn3)cc2)cc1 | -1.2 | 0.72
COc1ccc(S(=O)(=O)Nc2c(CCN3CCCC3)cccc2OC)cc1 | x | -0.43
COc1ccc(OCCc2nnc(N)s2)cc1 | -0.75 | x
NC(CC(=O)O)c1ccc(Cl)cc1 (configuration not stated) | x | -0.18
N#Cc1nccnc1N1CCN(S(=O)(=O)c2cc(Br)c(Cl)s2)CC1 | x | 4.7
COc1cccc(CSc2ccc(S(=O)(=O)N3CCOCC3)cc2C(=O)N2CCC(C)CC2)c1OC | x | -0.13
Cc1ccccc1/C=N/NC(=O)Cc1cn2ccsc2n1 | -0.5 | x
Cc1ccc(CNC(=O)c2ccc3nc[nH]c3c2)cc1 | 0.1 | 0.64
c1ccc(Nc2ccc(-n3ccnc3)nn2)cc1 | -1.2 | -0.21
Nc1cc(N)c2cc(-c3ccccc3)oc2c1 | -0.4 | 66
More results:
SMILES | AID504770 | Ba CapD inh
CN1CCN(C(=O)CNS(=O)(=O)c2ccccc2)CC1 | -0.4 | -2.5
CN(C)c1ccc(C(=O)N/N=C/c2cc(Br)cc(Br)c2O)cc1 | x | -0.83
CCCCC(=O)N1CCN(c2ccc(C(=O)CC)cc2F)CC1 | -0.5 | -0.095
O=c1[nH]c2cc(I)cc(I)c2o1 | x | -0.22
NC(=S)Nn1c(CCC(=O)O)ccc1-c1cccs1 | -1.5 | 0.28
O=C(c1cnc(NS(=O)(=O)c2ccccc2)nc1)N1CCOCC1 | -0.8 | x
CCNC(=O)n1cc(-c2ccncn2)c(-c2ccc(C(F)(F)F)cc2)n1 | x | -0.52
Cc1ccc2c(c1)C(C)CC(C)(C)N2C(=O)NC1CCCCC1 (configuration not stated) | x | 0.93
Cc1ccc(S(=O)(=O)N2CCN(CC(=O)N3N=C4/C(=C/c5cccs5)CCCC4C3c3cccs3)CC2)cc1 (configuration not stated) | -0.05 | x
CSc1sc(-c2ccn[nH]2)c(-c2ccccc2)c1C#N | x | 1.6
COC(=O)c1cc(S(=O)(=O)NCc2cccs2)c[nH]1 | 1.9 | -0.86
O=C1CN(CC(=O)Nc2ccc3c(c2)OC(F)(F)O3)CCN1 | -0.45 | x
O=C(Nc1ccc(N2CCCCC2)cc1)c1ccc2c(c1)OCO2 | -0.6 | x
O=C(NCc1csc(-c2cccs2)n1)c1nc2ccccc2s1 | -0.5 | 2.6
CCC(=O)c1cn(CC(=O)O)c2ccccc12 | -0.15 | -0.83

Pulled one by one from the entries so far:
SMILES | AID504770 | Ba CapD inh
CCC(=O)c1cn(CC(=O)O)c2ccccc12 | -0.15 | -0.83
COC(=O)c1cc(S(=O)(=O)NCc2cccs2)c[nH]1 | 1.9 | -0.86
O=C1CN(CC(=O)Nc2ccc3c(c2)OC(F)(F)O3)CCN1 | -0.45 | x
CCCCC(=O)N1CCN(c2ccc(C(=O)CC)cc2F)CC1 | -0.5 | -0.095

Next section.
SMILES | AID504770 | Ba CapD inh
S=C(Nc1cccc(Cl)c1)N1CCc2ccccc2C1 | -1.1 | 0.54
COc1ccc2c(CCNC(=O)OCC3CCCN(Cc4cc(OC)c(OC)cc4Br)C3)c[nH]c2c1 (configuration not stated) | x | -1.3
COC(=O)c1c(C)oc2ccc(N(C(=O)c3ccc([N+](=O)[O-])cc3)S(=O)(=O)c3ccc(Cl)cc3)cc12 | x | -0.28
O=C1S/C(=C/c2ccccc2F)C(=O)N1CN1CCCCC1 | -0.7 | 0.43
N#Cc1cccc(OC(=O)c2ccccc2)c1 | -0.55 | 0.09
CN1CCC2(N3CCOCC3)C(C1)N=NN2c1cc(C(F)(F)F)cc(C(F)(F)F)c1 (configuration not stated) | -0.75 | 0.26
CCOC(=O)c1cc(C#N)c(Oc2cc(C)cc(C)c2)nc1-c1ccccc1 | x | 0.1
O=c1c(C=Nc2ccccc2)c(O)c2cccc3c2n1CCC3 | -1.4 | 1.3
N#C/C(=C/Nc1ccc(I)cc1)c1nc2ccccc2o1 | -0.5 | x
CN(C)C(=O)NCc1cccnc1 | 0.5 | x
COc1ccc(NC(=O)N(Cc2c[nH]c3ccccc23)C(C)C)c(OC)c1 | -0.2 | -0.27
O=C(NCCC1=CCCCC1)c1cc2cc(Cl)ccc2oc1=O | -0.4 | 0.19
Cc1cc(C(=O)CN2C(=O)CCC2=O)c(C)n1Cc1ccccc1 | -0.1 | x
COC(=O)c1ccc(C(=O)OC)c(NC(=O)CSc2nc(C)nc3sc4c(c23)CCC4)c1 | x | -0.17
NCc1n[nH]c(=S)n1-c1cccc(C(F)(F)F)c1 | -0.05 | x
Cc1cc(C)n(C2=NCCN2C(=O)c2ccccc2F)n1 | x | 0.7
CC(N)c1ccc(-n2ccnc2)cc1 (configuration not stated) | -1.4 | x
NNC(=O)CN1C(=O)COc2ccccc21 | 0.2 | x
Cc1nc(NC2CCN(Cc3nnnn3Cc3ccc4c(c3)OCO4)CC2)[nH]c(=O)c1C | 0.25 | x
Cc1ccc(CSc2ncnc3sc4c(c23)CCC4)cc1 | 1.6 | 0.17
CCCc1[nH]n(-c2nc3ccccc3s2)c(=O)c1C=NCC1CCCO1 (configuration not stated) | 0.2 | 0.01
CC1=NN(C(N)=S)C(=O)C1C(c1ccccc1)C(C#N)C#N (configuration not stated) | -0.55 | -0.42
COc1ccc(C2C3CCc4ccccc4C3=NN2CCOC(=O)C2CC2)cc1 (configuration not stated) | 0.4 | 74
Cc1cccc(NC(C)C(=O)N/N=C/c2ccc(O)cc2)c1 (configuration not stated) | 0.05 | 0.83
O=C1CCCN1c1nc2ccccc2s1 | 1.2 | x
Cc1cc(C)n(C(=O)Nc2ccc(Cl)cc2)n1 | -0.1 | 1.4
C/C(=C\c1ccc(F)cc1)[N+](=O)[O-] | x | 0.73

Some of the entries so far, with values under each structure.
Below each compound – AID504770 | Ba CapD inh
NNC(=O)CN1C(=O)COc2ccccc21
 : 0.2 | x
Cc1nc(NC2CCN(Cc3nnnn3Cc3ccc4c(c3)OCO4)CC2)[nH]c(=O)c1C
 : 0.25 | x
Cc1ccc(CSc2ncnc3sc4c(c23)CCC4)cc1
 : 1.6 | 0.17
CCCc1[nH]n(-c2nc3ccccc3s2)c(=O)c1C=NCC1CCCO1 (configuration not stated)
 : 0.2 | 0.01
CC1=NN(C(N)=S)C(=O)C1C(c1ccccc1)C(C#N)C#N (configuration not stated)
 : -0.55 | -0.42
COc1ccc(C2C3CCc4ccccc4C3=NN2CCOC(=O)C2CC2)cc1 (configuration not stated)
 : 0.4 | 74
Cc1cccc(NC(C)C(=O)N/N=C/c2ccc(O)cc2)c1 (configuration not stated)
 : 0.05 | 0.83
